# Screening data deposited in PubChem by several laboratories.
# Mtb betalactam: beta-lactam sensitization of Mtb H37Rv; M. tuberculosis H37Rv growth with meropenem, percent inhibition; hits of this screen are not shown here; inhibition, % at 25 µM; actives 0.27% (n = 330,000); AID 434955;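 active = about 74% or more and at least 40 points above the plate without the antibiotic, then above 30% in a dose series; inconclusive = first-round hits that could not be retested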;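 also: growth measured after seven days incubation then overnight dye step; 0% = bacteria only wells and 100% = bacteria with antibiotic; twin plates without the antibiotic show which effects depend on it; some results filed as inactive read as strong as hits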
# Arbovirus anti: blocks arbovirus infection; arbovirus infection cell-based antiviral screen; inhibition, % at 10 µM; actives 0.37% (n = 200,000);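 active = inhibition from about 30%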;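 also: bluetongue infection of BSR cells; cell survival read as ATP light after 72 h; 0% = infected wells without compound and 100% = uninfected wells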
# YopH inh: blocks Yersinia enterocolitica YopH tyrosine phosphatase; inhibition, %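 (about 10 µM by stock and volumes)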; AID 898; actives 0.16% (n = 140,000); fluorescence Ex485/Em525;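 active = inhibition of 50% or more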;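 also: controls were vehicle for no effect and minimum signal wells for full effect; inactives centre near -20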
# Mtb H37Rv: M. tuberculosis H37Rv growth inhibitors, H37Rv strain (AID 1626); one-dose inhibition, % at 10 µM; IC50 in µM for titrated hits; M. tuberculosis H37Rv growth inhibition; higher % means a stronger effect; actives 0.95% (n = 220,000);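 active = confirmed in a dose series; inconclusive = inhibition above 80% but not taken into the dose series; inactive = below 80% or under 30% at every dose of the series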;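 also: bacteria incubated seven days before Alamar blue readout; 0% = bacteria only wells and 100% = bacteria with antibiotic wells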
# RecA splice inh: inhibitors of M. tuberculosis RecA intein splicing; P9WHJ3; cell-free RecA intein splicing, fluorescence; inhibition, %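 (about 9 µM by stock and volumes)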; actives 0.75% (n = 290,000); in the data active = inhibition above about 30%; inconclusive = no clear call, values can overlap the other calls;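 also: 0% = vehicle wells and 100% = reference inhibitor control wells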
# Target sequence (P9WHJ3 whole entry, looked up, canonical isoform): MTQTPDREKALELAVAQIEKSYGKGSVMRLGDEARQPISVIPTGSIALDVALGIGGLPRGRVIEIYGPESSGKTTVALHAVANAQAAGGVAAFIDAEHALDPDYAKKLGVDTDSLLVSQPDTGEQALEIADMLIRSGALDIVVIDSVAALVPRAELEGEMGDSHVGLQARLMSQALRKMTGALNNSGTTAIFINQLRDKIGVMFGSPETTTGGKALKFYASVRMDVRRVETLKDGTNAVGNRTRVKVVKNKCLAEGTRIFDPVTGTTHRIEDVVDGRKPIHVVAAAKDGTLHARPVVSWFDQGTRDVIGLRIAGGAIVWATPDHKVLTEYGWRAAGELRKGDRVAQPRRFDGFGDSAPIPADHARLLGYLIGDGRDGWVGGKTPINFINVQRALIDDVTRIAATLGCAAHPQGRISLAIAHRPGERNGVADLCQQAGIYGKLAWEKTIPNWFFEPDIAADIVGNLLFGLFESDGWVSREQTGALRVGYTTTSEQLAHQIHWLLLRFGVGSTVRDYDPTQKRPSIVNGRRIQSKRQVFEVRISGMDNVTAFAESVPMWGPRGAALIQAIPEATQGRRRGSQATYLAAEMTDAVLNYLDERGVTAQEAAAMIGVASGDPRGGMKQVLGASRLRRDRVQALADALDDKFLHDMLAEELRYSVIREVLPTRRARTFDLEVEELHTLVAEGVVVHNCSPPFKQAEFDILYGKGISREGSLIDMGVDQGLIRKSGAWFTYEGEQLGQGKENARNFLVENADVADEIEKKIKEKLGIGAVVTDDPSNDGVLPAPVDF
# Arbovirus anti repeat: second read-out of Arbovirus anti, no call of its own (marks repeat the call); inhibition, %; measured here: 10K subset replicate screen; many hits read low in the repeat;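 first of two repeat runs on a subset; 0% = infected and 100% = uninfected wells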
# * = called active by the depositor; ? = inconclusive; nt = no result given. This is a subset; the hit share may differ from the screen's.
SMILES,Mtb betalactam,Arbovirus anti,YopH inh,Mtb H37Rv,RecA splice inh,others
COc1ccc(C)cc1S(=O)(=O)Nc1ccc(F)cc1,-9,-3,-4,-9%,0.7,
CCCCOc1ccccc1C(=O)NNC(=S)NC(=O)c1ccccc1[N+](=O)[O-],94,nt,nt,nt,-5.7,
COc1ccc(-c2nc(N)n[nH]2)cc1,-13,-5,-6,-4%,-0.8,
Fc1ccc(C(c2nnnn2Cc2cccs2)N2CCN(C3CCCCC3)CC2)cc1 (stereo not given),-6,1,2,-12%,1.3,
Cc1ccc(COc2ccsc2C(=O)NN)cc1,4,-9,nt,-3%,1.2,
COc1cc(OC)c(OC)cc1/C=N/NC(=O)C[n+]1ccccc1,-4,-2,-21,nt,-0.4,
COc1ccc(-c2csc(NC(=O)c3c(OC)cccc3OC)n2)cc1,1,nt,nt,nt,4.0,
Cc1ccc(-c2nn(-c3ccccc3)cc2C=O)o1,76,-3,nt,89%,-11,
O=C(C1CCN(S(=O)(=O)c2ccccc2)CC1)N1CCN(Cc2ccccc2)CC1,-2,nt,nt,nt,-0.4,
Cc1ccsc1C(C(=O)NC1CCCCC1)N(C(=O)Cc1cccs1)C1CC1 (stereo not given),11,-3,-33,-8%,4.3,
CC(C)Cn1c(N)c(C(=O)COC(=O)c2ccc(O)cc2O)c(=O)n(C)c1=O,0,nt,nt,nt,2.3,
CC(C)C(=O)Nc1ccc(S(=O)(=O)Nc2ccccn2)cc1,3,0,nt,-2%,-0.4,
O=C1Nc2ccc(S(=O)(=O)NCC3CCCO3)c3cccc1c23 (stereo not given),-6,-2,nt,-5%,-133,
CCOc1ccccc1NC(=O)CN(C)S(=O)(=O)c1cccc2nsnc12,-2,2,5,1%,nt,
CCOc1cc(C2C(C(=O)N3CCCCC3)=C(C)NC3=C2C(=O)CCC3)cc(Br)c1O (stereo not given),5,0,11,-11%,-2.7,
CSc1ccccc1NC(=O)COC(=O)c1ccccc1O,-8,2,nt,-2%,-0.1,
Cc1cc(C(F)(F)F)nn1-c1nc(-c2ccco2)cc(C(F)(F)F)n1,-2,4,-6,-6%,-0.9,
COc1ccc(N(CC(=O)N/N=C(\C)c2cccs2)S(=O)(=O)c2ccccc2)cc1Cl,3,11,nt,4%,2.8,
CCCCCCCCOC(=O)CCn1[nH]c(=O)c2ccccc2c1=O,-1,5,9,7%,1.2,
Cc1cn(-c2ccc(Br)cc2)[nH]c1=O,98,8,-21,76%,6.5,
COc1ccc(C2CC(c3ccc(C)cc3)Nc3nc(N)nn32)cc1 (stereo not given),1,11,-49,-6%,-0.8,
CSCCC(NC(=O)c1cccc([N+](=O)[O-])c1)C(=O)OCC(=O)N1CCCC1=O (stereo not given),-10,nt,nt,nt,-1.7,
N#CCCN(C(=O)c1ccco1)c1ccccc1,1,-5,-7,0%,1.0,
O=C(N/N=C/c1ccc2ccccc2c1)c1ccc(COc2ccc3c(c2)CCC3)o1,56,-5,-21,7%,-1.2,
COc1ccc(CNC(=O)c2c(-c3cc(Cl)c(OC)c(Cl)c3)noc2C)cc1,6,17,-43,3%,2.8,
Cc1c(-c2nnc(-c3ccc(C(F)(F)F)cc3)o2)cnn1-c1ccccc1,3,5,-11,-9%,3.6,
Cc1ccc(OCC(=O)NS(=O)(=O)c2ccc(Cl)cc2)cc1,0,nt,nt,nt,0.7,
Oc1c(N=Nc2ccccc2)sc2ccccc12,36,nt,nt,-3%,0.5,
O=C(NNc1ccccc1)C(=O)NNS(=O)(=O)c1ccc([N+](=O)[O-])cc1,88,-33,nt,?,-5.5,
O=C(NCc1ccccc1)c1ccc(CN2CCOCC2)cc1,-11,3,-16,-10%,-0.1,Arbovirus anti repeat=-1
NC(=O)c1ccc(NC(=O)c2ccccc2S(=O)(=O)c2ccccc2[N+](=O)[O-])cc1,4,-6,-1,3%,-4.9,
CCc1ccc(NC(=O)c2cc(C(C)C)on2)cc1,71,-2,-15,74%,0.6,
O=C(COc1ccc(/C=N/NC(=O)C(=O)N2CCCCC2)cc1)Nc1ccccc1Cl,11,1,nt,1%,0.3,
COC(=O)[C@H](CCSC)NC(=O)NCCc1ccc(F)cc1,?,5,-35,-4%,0.4,
COc1ccc(NC(=O)Cn2c(=O)n(-c3ccc(CC(=O)NCc4ccco4)cc3)c(=O)c3ccccc32)cc1,3,-5,nt,-2%,-1.4,
CC1CC(=O)Nc2ccccc2N1C(=O)CN1CCN(c2ccccc2)CC1 (stereo not given),2,14,nt,-1%,0.0,
O=C(N/N=C\c1ccc2c(c1)OCO2)c1ccco1,2,-8,-19,-5%,0.7,
CC(C)(CNC(=O)CCNC(=O)c1ccc(Br)cc1)N1CCOCC1,-12,nt,nt,nt,0.1,
COc1ccc(/C(N)=N/OC(=O)C2CCCCC2)cc1OC,8,nt,nt,nt,3.9,
CCn1nnnc1SCC(=O)c1ccc2c(c1)OCCO2,-15,6,-17,nt,-2.0,
CCN1C(=O)C2CCCCN2c2ccc(C(=O)NCCOC)cc21 (stereo not given),-6,nt,nt,nt,0.8,
CNC(=O)c1c(NC(=O)CS(=O)(=O)c2ccc(F)cc2)sc(C)c1C,-2,nt,nt,nt,-0.7,
Cc1ccc(NC(=O)CN(C)S(=O)(=O)c2ccc(Br)s2)cc1F,-6,6,-14,2%,2.2,
CCOC(=O)Nc1ccc2c(COC(=O)CNS(=O)(=O)c3ccc(NC(C)=O)cc3)cc(=O)oc2c1,3,-2,nt,6%,0.5,
CCn1cc2nc(SCC(=O)Nc3ccc(OC)cc3OC)n(Cc3ccc(OC)cc3)c(=O)c2n1,6,nt,nt,nt,-0.3,
Cc1cc(Br)ccc1SCC(=O)OCC(=O)NCc1ccc2c(c1)OCO2,-3,-9,-17,-2%,-2.2,
COC(=O)c1ccc2c(=O)n(Cc3ccco3)c(SCC(=O)Nc3ccccc3Cl)nc2c1,-6,-13,-30,-5%,2.9,
COc1cc(C(=O)COC(=O)c2cnc(C)cn2)ccc1OC(F)F,?,nt,nt,nt,2.7,
Cc1noc(NS(=O)(=O)c2ccc(NC(=O)C34CC5CC(C3)CC(n3cnc(Cl)n3)(C5)C4)cc2)c1C,2,-3,0,8%,-0.3,
O=C(NCCc1csc(-c2cccnc2)n1)c1c(F)cccc1F,-3,nt,nt,14%,-0.8,
COc1ccc(OC)c(NC(=O)CN(c2ccc(OC)c(Cl)c2)S(C)(=O)=O)c1,1,2,-29,7%,nt,
Cc1cc2cc3c(cc2nc1SCC(=O)N1c2ccccc2CC1C)OCO3 (stereo not given),-2,-1,-11,11%,1.5,
O=C(CSc1nccn1-c1ncc(C(F)(F)F)cc1Cl)c1ccc(Cl)cc1,4,-2,-27,0%,8.1,
COc1ccc(O/C(=N\S(=O)(=O)c2ccccc2)c2ccccc2)cc1,2,-6,-18,6%,-2.3,
CCOc1ccccc1NC(=O)c1ccc(F)c(S(=O)(=O)N2CCC3(CC2)OCCO3)c1,-11,6,-25,-7%,-4.9,
CC(c1ccc(F)cc1)n1cc(C(=O)NCc2ccccn2)nn1 (stereo not given),-2,17,nt,10%,0.8,
O=C(c1cn(-c2ccccc2)nc1-c1cc2ccccc2oc1=O)N1CCOCC1,-4,-4,nt,5%,2.6,
COCc1cc(C)nc(OC)c1C(N)=O,-4,1,nt,0%,0.3,
CCCc1cc(=O)n2[nH]c(Cc3ccccc3)nc2n1,-8,0,-39,-3%,0.0,
COc1ccc(N(CC(=O)Nc2ccc3c(c2)OCCO3)S(=O)(=O)c2c(C)noc2C)cc1,6,1,-45,nt,1.3,

# Of the compounds above, 15 contain an aryl methoxy group:
SMILES,Mtb betalactam,Arbovirus anti,YopH inh,Mtb H37Rv,RecA splice inh,others
COc1ccc(C)cc1S(=O)(=O)Nc1ccc(F)cc1,-9,-3,-4,-9%,0.7,
COc1ccc(-c2nc(N)n[nH]2)cc1,-13,-5,-6,-4%,-0.8,
COc1cc(OC)c(OC)cc1/C=N/NC(=O)C[n+]1ccccc1,-4,-2,-21,nt,-0.4,
COc1ccc(-c2csc(NC(=O)c3c(OC)cccc3OC)n2)cc1,1,nt,nt,nt,4.0,
COc1ccc(N(CC(=O)N/N=C(\C)c2cccs2)S(=O)(=O)c2ccccc2)cc1Cl,3,11,nt,4%,2.8,
COc1ccc(C2CC(c3ccc(C)cc3)Nc3nc(N)nn32)cc1 (stereo not given),1,11,-49,-6%,-0.8,
COc1ccc(CNC(=O)c2c(-c3cc(Cl)c(OC)c(Cl)c3)noc2C)cc1,6,17,-43,3%,2.8,
COc1ccc(NC(=O)Cn2c(=O)n(-c3ccc(CC(=O)NCc4ccco4)cc3)c(=O)c3ccccc32)cc1,3,-5,nt,-2%,-1.4,
COc1ccc(/C(N)=N/OC(=O)C2CCCCC2)cc1OC,8,nt,nt,nt,3.9,
CCn1cc2nc(SCC(=O)Nc3ccc(OC)cc3OC)n(Cc3ccc(OC)cc3)c(=O)c2n1,6,nt,nt,nt,-0.3,
COc1cc(C(=O)COC(=O)c2cnc(C)cn2)ccc1OC(F)F,?,nt,nt,nt,2.7,
COc1ccc(OC)c(NC(=O)CN(c2ccc(OC)c(Cl)c2)S(C)(=O)=O)c1,1,2,-29,7%,nt,
COc1ccc(O/C(=N\S(=O)(=O)c2ccccc2)c2ccccc2)cc1,2,-6,-18,6%,-2.3,
COCc1cc(C)nc(OC)c1C(N)=O,-4,1,nt,0%,0.3,
COc1ccc(N(CC(=O)Nc2ccc3c(c2)OCCO3)S(=O)(=O)c2c(C)noc2C)cc1,6,1,-45,nt,1.3,

# (further entries)
SMILES,Mtb betalactam,Arbovirus anti,YopH inh,Mtb H37Rv,RecA splice inh,others
COC(=O)c1ccc(OCC(O)CNCC(c2ccc(OC)cc2)N(C)C)c(OC)c1 (stereo not given),-2,nt,nt,nt,-1.1,
COc1cc([N+](=O)[O-])ccc1NC(=O)COC(=O)C=C(C)C,6,11,nt,-1%,-1.8,
CCN(C(=O)CN1CCN(c2ccc(O)cc2)CC1)c1c(N)n(Cc2ccccc2)c(=O)[nH]c1=O,5,10,7,-21%,-2.2,
Cc1ccc(-n2c(=O)c3c4c(sc3n3c(C)nnc23)COC(C(C)C)C4)cc1 (stereo not given),-2,nt,20,-9%,1.2,
COC(=O)C(Cc1ccccc1)NC(=O)C12CC3CC(CC(C3)C1)C2 (stereo not given),-9,-12,-7,-7%,0.8,
Cn1c(=O)n(C)c2cc([N+](=O)[O-])c(N3CCN(C(=O)c4ccc(F)cc4)CC3)cc21,-5,5,nt,4%,-2.2,
CSCCC(NS(=O)(=O)c1ccc2c(c1)OCCO2)C(=O)NCCc1ccccn1 (stereo not given),5,-6,-14,9%,-3.8,
Cc1ccc(C)c(NC(=O)CCC(=O)N/N=C/c2cc([N+](=O)[O-])ccc2O)c1,3,12,nt,-4%,-2.3,
Cc1cccc(C)c1N1CCN(C(=O)N2CCOCC2)CC1,-5,-5,nt,1%,-1.5,
N#C/C(=C(/O)CCl)c1nnc2n1CCCCC2,57,2,nt,0%,5.3,
O=C(/C=N/O)NCCCn1ccnc1,-6,4,-16,-4%,-1.7,
CCOc1cc(Br)ccc1S(=O)(=O)N1CCC(C(N)=O)CC1,1,7,-8,-1%,1.8,
CCCCn1c2c(c(=N)c3ccccc31)CCC2,-22,nt,nt,nt,1.3,
CO/N=C(/CS(=O)c1ccc(Br)cc1)c1ccc(OC)cc1 (stereo not given),-5,-1,-3,5%,3.6,
Nc1ccc(O)c2ccccc12,100,nt,nt,nt,88*,
O=C(CCS(=O)(=O)c1ccccc1)N1CCN(c2ccccc2F)CC1,-8,nt,nt,nt,-3.0,
Cc1cc(C)cc(NC(=O)CCC(=O)N2CCSc3ccccc32)c1,0,nt,nt,nt,3.4,
Cc1ccc2nc(-c3ccc(N4C(=O)CC(N5CCN(CCO)CC5)C4=O)cc3)sc2c1 (stereo not given),2,3,-27,2%,6.2,
CCN(CC)CCn1c2c(c(SCC(=O)Nc3ccc(C(C)C)cc3)nc1=O)CCC2,-10,nt,nt,nt,2.1,
Cc1ccc(S(=O)(=O)N2CCC(=O)N(C(COCc3ccccc3)C(C)C)CC2)cc1 (stereo not given),-5,-7,-9,0%,-3.4,
Cc1oc(-c2ccc(Cl)cc2)nc1CN1CCC(C(=O)NCCCN2CCOCC2)CC1,-5,-14,-42,-4%,-0.7,
O=C(Nc1nnc(-c2ccncc2)o1)C1CCCCC1,-3,-1,-26,0%,0.7,
